ALR inh: inhibitors of human ALR sulfhydryl oxidase, primary screen, biochemical, H2O2 detection, HRP-luminol luminescence, single point. purified ALR, DTT oxidation. 290,000 compounds, 3.8% hits. AID 485317, 2010. inhibition, % (no concentration beside the values);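 active means mean and each replicate at 75% or more; inconclusive means only one of the two met; inactive means neither met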;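 further: stock transfer was 7.5 nL into about 7.5 µL; 0% = neutral wells and 100% = wells with inactivated enzyme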
Target sequence (P55789 whole entry, looked up): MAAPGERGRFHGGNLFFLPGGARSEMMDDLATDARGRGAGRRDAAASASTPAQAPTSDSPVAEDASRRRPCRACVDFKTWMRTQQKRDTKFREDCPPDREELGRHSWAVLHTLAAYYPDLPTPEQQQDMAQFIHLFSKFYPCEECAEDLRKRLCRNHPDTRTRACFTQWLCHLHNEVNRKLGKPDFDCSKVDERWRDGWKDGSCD
MLL AF4-AF9 inh: inhibitors of AF4 peptide binding to AF9, primary screen, biochemical, AlphaScreen, biotin-AF4 peptide, FLAG-AF9, single point; inhibition, % at 10 µM; Protein AF-9 (Homo sapiens), P42568; 350,000 compounds, 0.47% hits; AID 651704, 2012;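 active means every replicate reaching a set inhibition limit, whatever the replicate mean, cut at about 25% in these data; inconclusive means mean inhibition reaches that limit but some replicates miss it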;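 further: 0% = plate neutral control median and 100% = total signal loss; the record names both 10 and 1 µM as test concentration; the first replicate is given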
Target sequence (P42568 whole entry, looked up): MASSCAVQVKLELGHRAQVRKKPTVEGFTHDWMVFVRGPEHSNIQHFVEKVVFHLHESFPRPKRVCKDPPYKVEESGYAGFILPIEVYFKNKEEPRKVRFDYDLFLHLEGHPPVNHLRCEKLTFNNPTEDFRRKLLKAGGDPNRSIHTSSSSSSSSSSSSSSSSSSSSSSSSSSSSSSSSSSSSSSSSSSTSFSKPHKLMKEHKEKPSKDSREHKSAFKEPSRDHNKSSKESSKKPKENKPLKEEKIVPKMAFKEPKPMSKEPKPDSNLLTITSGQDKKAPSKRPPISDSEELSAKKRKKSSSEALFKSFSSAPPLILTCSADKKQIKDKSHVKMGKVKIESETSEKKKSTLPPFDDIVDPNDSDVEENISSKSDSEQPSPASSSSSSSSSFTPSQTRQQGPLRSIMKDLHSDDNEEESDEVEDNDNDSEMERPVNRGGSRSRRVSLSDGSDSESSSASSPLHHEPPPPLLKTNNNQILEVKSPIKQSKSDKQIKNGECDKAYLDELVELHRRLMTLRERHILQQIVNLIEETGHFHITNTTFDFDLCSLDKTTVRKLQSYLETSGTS
T cruzi inh: inhibitors of intracellular T. cruzi growth, primary screen, luminescence, NIH3T3 host cells. T. cruzi beta-gal in NIH3T3, 90 h. inhibition, % (concentration not given with the values). 300,000 compounds, 1.4% hits;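 active means mean inhibition across valid replicates above about 55%, limit read from the data; inconclusive means mean below that limit but half or more replicates reach it; inactive means mean below it, under half of replicates reach it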;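 further: signal also drops with host cell toxicity which is not excluded here; 0% = plate median of DMSO wells and 100% = zero luminescence signal; higher percent means less beta-gal luminescence so fewer parasites; stock transfer was 50 nL into about 50 µL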
Beta cell apopt: inhibitors of cytokine-induced beta cell apoptosis, primary screen, luminescence | INS-1E cytokine-induced death, ATP luminescence, 48 h; percent of positive-control rescue, neutral wells zero | protection from apoptosis, % (test concentration not listed) | 300,000 compounds, 0.8% hits | AID 435005, 2010;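 active means all replicates at 75% or more, or half of them and the mean; inconclusive means half reach 75% but not the mean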;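 further: 0% = cytokine-treated negative control wells and 100% = positive control rescue; higher means more ATP so stronger rescue from cytokine killing; wells of about 40 µL received 100 nL stock; the first replicate is given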
FGF22 binding: binders of human FGF22 protein, primary screen, FGF22 synaptogenesis inhibitor project, biophysical, thermal shift, single point | Fibroblast growth factor 22 (Homo sapiens), Q9HCT0 | recombinant FGF22 thermal shift, SYPRO orange fluorescence; percent of sucrose octasulfate shift, DMSO zero | calls only at 9.99 µM | 340,000 compounds, 1.5% hits;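 active means melting point raised past a set limit in the mean and every replicate; inconclusive means no clear call; three in four hits are not shown here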
Target sequence (Q9HCT0 whole entry, looked up): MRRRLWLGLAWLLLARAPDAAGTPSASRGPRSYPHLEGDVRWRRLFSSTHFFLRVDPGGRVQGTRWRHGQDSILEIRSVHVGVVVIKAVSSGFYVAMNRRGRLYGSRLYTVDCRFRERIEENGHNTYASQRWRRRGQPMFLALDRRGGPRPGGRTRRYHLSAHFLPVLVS
rRNA inh HTS: reduced GFP signal of wild-type E. coli, primary screen, bacterial rRNA inhibitor project, GFP/RFP fluorescence, OD600, single point. E. coli WT GFP vs humanized-ribosome RFP mutants, 24 h; active compounds read low; DMSO median 0, no signal -100. GFP signal change (wild-type ribosome), % (test concentration not listed). 350,000 compounds, 1.6% hits;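 active means significant combined selectivity score with lowered wild-type GFP, culture density cut under 30%, mutant RFP and density less affected; inactive means any of these conditions unmet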; further: one replicate is shown; some compounds called inactive have numbers as strong as hits
Calb FLC: C. albicans growth inhibition with fluconazole, primary screen, CaCi-2 strain, Alamar Blue fluorescence. C. albicans CaCi-2 (fluconazole-resistant clinical isolate) + fluconazole, 48 h. growth inhibition, % (no concentration beside the values). 300,000 compounds, 0.57% hits. AID 1979, 2009;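 active means most replicates above 75%; inconclusive means exactly half above 75%; inactive means most below 75%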;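 further: all wells also contain fluconazole at 8 µg/ml as a sub-toxic cotreatment; 0% = median of DMSO wells and 100% = median of geldanamycin control wells; wells of about 8 µL received 7.5 nL stock; the first replicate is given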
RanGTP-Impb inh: inhibitors of RanGTP-importin-beta interaction, primary screen, biochemical, FRET, CFP-Ran, YFP-importin-beta, homogeneous; Ran GTPase (GTP-bound) - importin-beta complex; cell-free CFP-Ran/YFP-importin-beta FRET ratio; inhibition, % (concentration not given with the values); 300,000 compounds, 1.1% hits; AID 2216, 2009;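 active means most replicates above 15%; inconclusive means exactly half above 15%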;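 further: 0% = DMSO wells and 100% = Ran loaded with GDP instead of GTP; wells of about 40 µL received 100 nL stock; the first replicate is given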
rRNA inh HTS OD600: also measured in rRNA inh HTS; calls as there; OD600 change, %; measured here: OD600 growth;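 optical density of the mix in the first replicate; 0 = DMSO median and -100 = no signal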
rRNA inh HTS RFP: also measured in rRNA inh HTS; calls as there; RFP signal change, %; measured here: RFP humanized mutant strains;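 first replicate; 0 = DMSO median and -100 = no signal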
* = called active by the depositor; i = inactive; ? = inconclusive; . = no result given.

SMILES	ALR inh	MLL AF4-AF9 inh	T cruzi inh	Beta cell apopt	FGF22 binding	rRNA inh HTS	rRNA inh HTS OD600	rRNA inh HTS RFP	Calb FLC	RanGTP-Impb inh
CCOC(=O)c1nn(-c2ccc(OC)cc2)c(=O)c2c(N)scc12	-42	-2.6	-21	1	i	14	5	6.7	42	-3.7
Nc1ccc2nc(SCc3ccccc3F)sc2c1	99*	-0.8	23	-1	i	-46	-38	-12	-15	?
CC(C)c1ccc(OCC(=O)Nc2ccc(S(=O)(=O)Nc3ccccn3)cc2)cc1	-9	-3.2	-10	-6	i	0	7	-1.8	-4	-0.3
Cc1ccc(S(=O)(=O)Nc2cc3c4c(c2)CCC(=O)N4CCC3)cc1	1	-2.4	11	11	i	-12	-9	5.9	15	-1.1
CSC1=NCCN1C(=O)C12CC3CC(CC(C3)C1)C2	-12	0.2	3	-6	i	-10	-5	-4.1	0	1.7
COc1ccc(Cl)cc1C(=O)NCCCSc1ccccc1	-4	-1.3	3	-3	i	-40	-64	-4.3	-1	2.1
O=C(c1ccco1)N1CCN(C(=O)C2CCN(S(=O)(=O)c3cccs3)CC2)CC1	9	.	-10	2	.	.	.	.	1	4.7
CN(CC(=O)Nc1ccc(OC(F)F)cc1)S(=O)(=O)/C=C/c1ccccc1	1	-1.4	.	-1	i	1	-1	-1.3	.	.
O=C(CSc1nc2ccccc2c(=O)n1CCCO)N1CCc2ccccc21	-7	-0.6	0	-2	i	.	.	.	40	4.8
S=c1[nH]nc(-c2cccc(Cl)c2)n1/N=C/c1ccc(-c2ccccc2Br)o1	.	-3.5	12	6	i	13	3	0.5	-9	?
CC(=O)N1CN(S(=O)(=O)c2ccc(C)cc2)CC1C (stereo not drawn)	-10	4.1	-5	-13	i	4	14	-3.2	-2	0.7
O=C(COC(=O)CNS(=O)(=O)c1ccc(F)c(F)c1F)NC1CC1	5	-1.6	3	0	i	16	10	-1.0	4	-0.1
Cc1ccccc1-n1ccnc1SCC(=O)NC1CCCC1	-1	-6.0	-3	-2	i	5	2	1.4	3	-0.4
COc1ccc(-c2csc3ncnc(N4CCN(S(=O)(=O)c5cccc(F)c5)CC4)c23)cc1	0	-0.9	30	19	.	11	8	1.2	-3	-3.8
CCNC(=S)N1CCN(CC(=O)Nc2ccc(Br)cc2)CC1	.	.	-8	-13	.	.	.	.	-4	-4.4
CCCCNC(=O)CSc1nc2n[nH]c(C)c2c(=N)n1-c1cccc(Cl)c1C	0	.	.	31	.	.	.	.	28	4.1
Cc1cccc(CSc2ncc(CO)n2C)c1	-4	.	0	-2	.	.	.	.	-10	1.7
Cc1cc(NC(=O)Cn2c(C)nc3ccccc3c2=O)ccc1Br	.	.	16	-5	.	.	.	.	-26	-0.8
CCOC(=O)CC/C(C)=N\N=C1\SC(CC(=O)O)C(=O)N1c1ccccc1 (stereo not drawn)	1	-1.3	-6	1	i	16	18	1.0	3	2.8
C#CCSc1[nH]c(=O)cc(C)c1C#N	-8	-1.0	2	-2	i	-5	-7	-2.2	3	-1.5
CCOc1ccc(N2CC(C(=O)Nc3ccccc3F)CC2=O)cc1 (stereo not drawn)	-16	.	-9	-5	.	.	.	.	-17	-0.3
CC1=C([N+](=O)[O-])C(c2ccccc2C(F)(F)F)NC(=O)N1C (stereo not drawn)	14	-1.4	-7	2	i	5	-3	1.2	-5	1.7
CN(C)C(=O)C[n+]1cccc(/C=N/O)c1	-29	-1.5	-25	-6	i	13	9	2.5	9	-1.2
CCOC(=O)COc1ccc(Br)cc1/C=C1\SC(N)=NC1=O	-8	2.0	-18	-5	i	-22	-22	-1.1	3	7.9
Cc1ccc(S(=O)(=O)N2CCN(S(C)(=O)=O)C2C)cc1 (stereo not drawn)	-17	1.0	13	.	i	4	4	-2.6	1	-0.8
Cc1nc(COc2ccc(C(=O)Nc3ccccc3N3CCOCC3)cc2)cs1	-37	1.1	5	1	.	-9	-17	-3.4	-1	-0.5
CC(C)(C)c1nc(-c2ccccc2)nc2c1OCCC2	-5	-1.1	10	-5	i	18	16	-2.9	-3	1.3
O=C(O)CSc1c2c(nc3cc(C(=O)Nc4cccc(C(F)(F)F)c4)ccc13)CCC2	96*	-3.9	-4	-8	i	5	13	20	0	1.0
C=C(C)Cn1c(-c2cccs2)n[nH]c1=S	.	-7.5	-12	-2	.	6	7	0.9	5	-2.2
Cc1ccc(SCC(=O)OCC(=O)NCC2CCCCC2)cc1C	0	-0.9	0	-3	i	-3	0	1.4	2	-3.1
N/C(=N\OC(=O)c1cccc2ccccc12)c1ccccn1	33	-3.3	-4	10	i	-40	-38	-4.4	29	-0.8
COc1ccc(-c2csc(NC(=O)CSc3nnc(Nc4ccccc4C)s3)n2)cc1	-2	-1.9	-29	1	i	3	5	3.1	-17	3.8
CCOC(=O)c1ccc(NC(=O)CSc2nc(C)cc(=O)[nH]2)cc1	99*	.	-16	-2	.	.	.	.	4	2.3
O=C(NN1CCOCC1)c1ccccc1F	-5	-1.0	-3	1	i	8	9	-2.0	8	-0.4
Cn1nc(C(=O)OCC(=O)Nc2ccccc2[N+](=O)[O-])c2ccccc2c1=O	.	1.0	.	-3	i	2	4	-0.6	.	.
Cc1ccc(S(=O)(=O)N(C)Cc2nc(-c3ccncc3)no2)cc1	-2	.	8	1	.	.	.	.	2	1.1
COc1ccccc1NC(=O)N1c2ccccc2NC(=O)CC1C (stereo not drawn)	-17	-1.3	-2	-6	i	1	7	0.3	3	1.4
COc1ccc(S(=O)(=O)N(C)CC(=O)Nc2ccccc2C(F)(F)F)cc1	-3	.	-6	-3	.	.	.	.	2	-4.3
Cn1ncc(S(=O)(=O)Cc2ccccc2)c(Cl)c1=O	.	-2.0	-10	3	i	31	8	2.3	-3	-1.3
CCOc1ccccc1N(CC(=O)Nc1ccccc1C(=O)OC)S(C)(=O)=O	-3	.	13	-1	.	.	.	.	-2	2.2
COc1ccc(CC(=O)N2CCN(c3ccccc3OC)CC2)cc1	0	-0.4	-6	-4	i	-1	2	0.9	-6	-4.6
CCN(CC)CCOC(=O)c1ccc(NC(=S)NC(=O)/C=C/c2ccco2)cc1	14	.	8	-3	.	.	.	.	-8	10
CCC(=O)Nc1ccc(C(=O)COC(=O)C(CCSC)NC(=O)COc2ccccc2)cc1 (stereo not drawn)	-5	0.5	0	-5	i	8	1	3.5	1	2.3
O=C(Oc1ccc(/C=N/Nc2nc(N3CCCCC3)nc(N3CCCCC3)n2)cc1)c1ccco1	-3	-0.7	21	.	i	-9	0	-2.0	15	-2.5
CC(=O)c1cccc(NC(=O)/C(=C\c2ccco2)NC(=O)c2ccco2)c1	30	-3.4	4	7	i	13	2	1.3	0	1.0
CCN1CCN(C(C)CCc2ccccc2)CC1 (stereo not drawn)	.	-10	43	-5	i	10	4	-2.8	1	0.9
CCOC(=O)c1cnc2nc(SC)nn2c1N	-2	-0.6	-14	-7	i	3	7	-0.4	-9	4.6
Cc1cc(C(=O)CN2C(=O)NC(CC(C)C)C2=O)c(C)n1C1CC1 (stereo not drawn)	7	1.4	.	-5	i	-1	-2	1.5	.	.
O=C(CCNS(=O)(=O)c1ccccc1C(F)(F)F)N1CCN(S(=O)(=O)c2cccc(Cl)c2)CC1	0	1.2	2	5	i	-10	-17	-1.7	-1	.
O=C(CCCOc1cccc(Br)c1)NC1CCC(O)CC1 (stereo not drawn)	-3	0.9	-6	5	i	0	2	0.2	-20	-2.3
New compounds follow:
SMILES	ALR inh	MLL AF4-AF9 inh	T cruzi inh	Beta cell apopt	FGF22 binding	rRNA inh HTS	rRNA inh HTS OD600	rRNA inh HTS RFP	Calb FLC	RanGTP-Impb inh
COC(=O)C1=C(C)N(CCc2ccc(OC)c(OC)c2)C(=O)/C1=C\N(C)C	6	.	-3	-2	.	.	.	.	5	0.2
CCCCCC/C=N/Nc1nnc(Cc2ccc(OC)c(OC)c2)c(=O)[nH]1	-6	-0.8	16	-3	i	4	-1	-4.3	5	1.7
CCN(C(=O)CN1C(=O)NC2(CCCc3ccccc32)C1=O)c1ccc(F)cc1 (stereo not drawn)	.	-0.2	.	1	i	8	5	-0.4	.	.
CCOC(=O)c1ccc(Nc2nc(C)cc(=O)[nH]2)cc1	-1	8.4	-3	-1	i	3	6	2.3	-17	0.5
O=C(Nc1c[nH]c(=O)[nH]c1=O)c1ccc([N+](=O)[O-])cc1	-11	-2.5	-6	-3	i	12	9	-1.2	4	-1.6
Cn1c(CN2CCCCC2)nc2cc(NC(=O)c3ccc(F)cc3)ccc21	-19	.	7	-6	.	.	.	.	-7	?
CCN(C(=O)CSc1nnc2ccccn12)C1CCS(=O)(=O)C1 (stereo not drawn)	1	-1.8	-10	4	i	14	11	0.8	-17	6.4

A second format for some results above.
Below each SMILES – ALR inh | MLL AF4-AF9 inh | T cruzi inh | Beta cell apopt | FGF22 binding | rRNA inh HTS | rRNA inh HTS OD600 | rRNA inh HTS RFP | Calb FLC | RanGTP-Impb inh
Cc1cc(C(=O)CN2C(=O)NC(CC(C)C)C2=O)c(C)n1C1CC1 (stereo not drawn)
 : 7 | 1.4 | . | -5 | i | -1 | -2 | 1.5 | . | .
O=C(CCNS(=O)(=O)c1ccccc1C(F)(F)F)N1CCN(S(=O)(=O)c2cccc(Cl)c2)CC1
 : 0 | 1.2 | 2 | 5 | i | -10 | -17 | -1.7 | -1 | .
O=C(CCCOc1cccc(Br)c1)NC1CCC(O)CC1 (stereo not drawn)
 : -3 | 0.9 | -6 | 5 | i | 0 | 2 | 0.2 | -20 | -2.3
COC(=O)C1=C(C)N(CCc2ccc(OC)c(OC)c2)C(=O)/C1=C\N(C)C
 : 6 | . | -3 | -2 | . | . | . | . | 5 | 0.2
CCCCCC/C=N/Nc1nnc(Cc2ccc(OC)c(OC)c2)c(=O)[nH]1
 : -6 | -0.8 | 16 | -3 | i | 4 | -1 | -4.3 | 5 | 1.7
CCN(C(=O)CN1C(=O)NC2(CCCc3ccccc32)C1=O)c1ccc(F)cc1 (stereo not drawn)
 : . | -0.2 | . | 1 | i | 8 | 5 | -0.4 | . | .
CCOC(=O)c1ccc(Nc2nc(C)cc(=O)[nH]2)cc1
 : -1 | 8.4 | -3 | -1 | i | 3 | 6 | 2.3 | -17 | 0.5
O=C(Nc1c[nH]c(=O)[nH]c1=O)c1ccc([N+](=O)[O-])cc1
 : -11 | -2.5 | -6 | -3 | i | 12 | 9 | -1.2 | 4 | -1.6
Cn1c(CN2CCCCC2)nc2cc(NC(=O)c3ccc(F)cc3)ccc21
 : -19 | . | 7 | -6 | . | . | . | . | -7 | ?
CCN(C(=O)CSc1nnc2ccccn12)C1CCS(=O)(=O)C1 (stereo not drawn)
 : 1 | -1.8 | -10 | 4 | i | 14 | 11 | 0.8 | -17 | 6.4

The list is partial (hit frequency here may not be typical).
